# Screening results: PubChem, several laboratories
# ALR inh: human ALR oxidase inhibition via reduced H2O2. purified ALR, DTT oxidation, H2O2 HRP-luminol luminescence. inhibition, % (test concentration not listed). actives 3.8% (n = 290,000). AID 485317;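 active means mean and each replicate at 75% or more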;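 further: stock transfer was 7.5 nL into about 7.5 µL; 0% = neutral wells and 100% = wells with inactivated enzyme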
# Target sequence (P55789 whole entry, looked up): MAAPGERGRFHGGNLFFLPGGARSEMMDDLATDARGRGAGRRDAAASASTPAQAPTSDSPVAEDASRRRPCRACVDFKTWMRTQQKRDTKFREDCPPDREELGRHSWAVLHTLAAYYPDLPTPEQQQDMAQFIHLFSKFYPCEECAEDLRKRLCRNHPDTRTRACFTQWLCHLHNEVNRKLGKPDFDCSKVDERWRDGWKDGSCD
# FGF22 binding: shifts melting point of recombinant human FGF22. calls only at 9.99 µM. Q9HCT0. recombinant FGF22 thermal shift, SYPRO orange fluorescence; percent of sucrose octasulfate shift, DMSO zero. actives 1.5% (n = 340,000);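 active means melting point raised past a set limit in the mean and every replicate; three in four hits are not shown here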
# Target sequence (Q9HCT0 whole entry, looked up): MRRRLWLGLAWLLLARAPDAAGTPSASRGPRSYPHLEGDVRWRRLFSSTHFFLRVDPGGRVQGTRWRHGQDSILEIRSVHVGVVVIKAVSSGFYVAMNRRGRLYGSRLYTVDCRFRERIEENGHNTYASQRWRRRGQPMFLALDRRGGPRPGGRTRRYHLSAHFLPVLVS
# Ecoli rRNA inh: inhibits bacterial ribosomal RNA function over humanized ribosomes. AID 720706. actives 1.6% (n = 350,000). E. coli WT GFP vs humanized-ribosome RFP mutants, fluorescence, 24 h; stronger effect = lower value; DMSO median 0, no signal -100. GFP signal change (wild-type ribosome), % (concentration not given with the values);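 active means significant combined selectivity score with lowered wild-type GFP, culture density cut under 30%, mutant RFP and density less affected; inactive means any of these conditions unmet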; further: one replicate is shown; some compounds called inactive have numbers as strong as hits
# UCH37 inh: human UCH37 deubiquitinating enzyme inhibition; inhibition, % (concentration not given with the values); actives 0.33% (n = 330,000); Q9Y5K5; purified proteasome/UCH37, Ub-AMC cleavage fluorescence; AID 588478;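 active means mean of two replicates above 20%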;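 further: 0% = compound-free wells with enzyme and 100% = wells lacking proteasome; stock transfer was 100 nL into about 20 µL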
# Target sequence (Q9Y5K5 whole entry, looked up): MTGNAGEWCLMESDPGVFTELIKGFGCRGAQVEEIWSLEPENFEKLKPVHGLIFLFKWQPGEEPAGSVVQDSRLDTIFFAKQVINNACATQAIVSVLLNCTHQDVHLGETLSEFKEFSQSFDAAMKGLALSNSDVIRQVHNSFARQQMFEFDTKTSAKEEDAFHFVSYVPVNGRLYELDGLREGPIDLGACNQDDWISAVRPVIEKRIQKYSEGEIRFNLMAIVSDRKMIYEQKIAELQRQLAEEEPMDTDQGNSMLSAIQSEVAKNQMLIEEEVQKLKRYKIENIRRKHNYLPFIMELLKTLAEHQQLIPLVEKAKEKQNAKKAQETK
#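 Reagent: Ub-AMC substrate; assay system: Proteasome-associated human UCH37 deubiquitinase; controls: no-proteasome and no-compound wells; read-out: % inhibition of Ub-AMC cleavage fluorescence; timing: 30 min preincubation with enzyme, 25 min cleavage at room temperature; signal: AMC fluorescence from Ub-AMC cleavage, excitation 355 nm, emission 460 nm; buffer or medium: Tris-HCl pH 7.4 plus ovalbumin, ATP-MgCl2, DTT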
# Beta2AR agonist: agonists of human beta-2 adrenergic receptor inducing internalization; response, % (no concentration beside the values); AID 504454; Am2.2-beta2AR cells, FAP receptor internalization, flow cytometry; reference of the scale not given here; actives 0.43% (n = 340,000); P07550;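 active means response above a set limit, near 3 SD of response in nonfluorescent compounds, cut at about 42% in these data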;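 further: stock transfer was 100 nL into about 11 µL; a reference agonist was the positive control; negative values mostly stem from fluorescent compounds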
# HNF4A DNA FP: change in binding of human HNF4 alpha to DNA. HNF4a-FITC DNA binding, fluorescence polarization, 1 h. AID 1224865. P41235. activity change, % at 10 µM. actives 0.3% (n = 360,000); in the data active means activity change above about 30%, passing the limit was not always enough;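 further: controls were the assay level and a saturating level of protein; the project sought stronger binding though the title names inhibitors; some compounds called inactive have numbers as strong as hits; positive values seem to mean higher polarization but the record does not say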
# E coli growth: blocks Escherichia coli growth. OD600, 23 h; stronger effect = lower value. OD600 absorbance (no concentration beside the values). actives 0.21% (n = 330,000). AID 1053175;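 active means OD600 absorbance below the run mean of sample wells minus 3.6 SD, in any replicate, cut at about 0.56 in these data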;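 further: stock transfer was 300 nL into about 60 µL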
# Ecoli rRNA inh OD600: recorded beside Ecoli rRNA inh, whose call it bears; OD600 change, %; measured here: OD600 growth;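 optical density of the mix in the first replicate; 0 = DMSO median and -100 = no signal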
# Ecoli rRNA inh RFP: further read-out of Ecoli rRNA inh, marked with its call; RFP signal change, %; measured here: RFP humanized mutant strains;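 first replicate; 0 = DMSO median and -100 = no signal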
# Numbers without * were called inactive; i = inactive; nt = not tested or not shown.
SMILES,ALR inh,FGF22 binding,Ecoli rRNA inh,Ecoli rRNA inh OD600,Ecoli rRNA inh RFP,UCH37 inh,Beta2AR agonist,HNF4A DNA FP,E coli growth
CCOc1ccc2nc(NC(=O)CN3C(=O)C4CCCCC4C3=O)sc2c1 (stereo not drawn),-107,i,1,0,-0.5,-0.7,8,-2.1,0.64
C=CCn1c(SCC(=O)NCC2CCCO2)nnc1C1CCCCC1 (stereo not drawn),-17,nt,nt,nt,nt,4.4,0,1.8,0.67
O=C(CC1C(=O)NCCN1C(=O)Nc1ccc(F)cc1F)Nc1cc(Cl)ccc1Cl (stereo not drawn),0,i,-16,-16,3.1,-0.6,2,0.4,0.66
CCCCSc1nc2sc3c(c2c(=O)n1-c1ccc(OC)cc1)CCN(C)C3,nt,i,-20,-26,14,3.2,5,12,0.63
Cc1ccc(NC(=S)Nc2ccc(F)cc2)cc1,-3,i,5,2,-4.5,0.2,1,0.3,0.68
CCn1c(COc2ccccc2C)nnc1SCC(=O)NCc1ccccc1,-7,nt,nt,nt,nt,7.0,0,-2.1,0.68
Cn1c2c(c(=O)n(C)c1=O)C(c1ccc(Br)cc1)C(C#N)=C(N)N2 (stereo not drawn),-9,nt,9,3,-2.0,0.6,-1,1.6,0.71
CN(CCOc1ccc(Cl)cc1)Cc1cccc(S(=O)(=O)N(C)C)c1,-3,i,-2,-16,2.6,4.6,-9,0.9,0.67
CCOC(=O)C1=CCN(S(=O)(=O)c2ccccc2F)C1c1ccc(F)cc1 (stereo not drawn),nt,i,-23,-57,-2.1,nt,nt,-1.3,nt
COc1ccccc1C(C)NC(=O)CCC(=O)N1CCN(S(=O)(=O)c2ccc(Cl)cc2)CC1 (stereo not drawn),nt,i,-3,-8,1.1,0.1,0,1.9,0.66
CN1C(=O)N(CC(=O)N2CCN(c3ncccn3)CC2)C(=O)C12CCCCC2,nt,i,9,12,-6.1,3.1,3,0.8,0.65
CCCC(=O)Nc1ccc(N2CCN(C(=O)c3cc4ccccc4o3)CC2)cc1,-9,i,8,8,3.0,1.3,-12,1.5,0.72

# An excerpt from above in order of number of heavy atoms, highest first.
SMILES,ALR inh,FGF22 binding,Ecoli rRNA inh,Ecoli rRNA inh OD600,Ecoli rRNA inh RFP,UCH37 inh,Beta2AR agonist,HNF4A DNA FP,E coli growth
O=C(CC1C(=O)NCCN1C(=O)Nc1ccc(F)cc1F)Nc1cc(Cl)ccc1Cl (stereo not drawn),0,i,-16,-16,3.1,-0.6,2,0.4,0.66
CCn1c(COc2ccccc2C)nnc1SCC(=O)NCc1ccccc1,-7,nt,nt,nt,nt,7.0,0,-2.1,0.68
C=CCn1c(SCC(=O)NCC2CCCO2)nnc1C1CCCCC1 (stereo not drawn),-17,nt,nt,nt,nt,4.4,0,1.8,0.67
Cc1ccc(NC(=S)Nc2ccc(F)cc2)cc1,-3,i,5,2,-4.5,0.2,1,0.3,0.68

# Back to the main list, starting four compounds before the break.
SMILES,ALR inh,FGF22 binding,Ecoli rRNA inh,Ecoli rRNA inh OD600,Ecoli rRNA inh RFP,UCH37 inh,Beta2AR agonist,HNF4A DNA FP,E coli growth
CCOC(=O)C1=CCN(S(=O)(=O)c2ccccc2F)C1c1ccc(F)cc1 (stereo not drawn),nt,i,-23,-57,-2.1,nt,nt,-1.3,nt
COc1ccccc1C(C)NC(=O)CCC(=O)N1CCN(S(=O)(=O)c2ccc(Cl)cc2)CC1 (stereo not drawn),nt,i,-3,-8,1.1,0.1,0,1.9,0.66
CN1C(=O)N(CC(=O)N2CCN(c3ncccn3)CC2)C(=O)C12CCCCC2,nt,i,9,12,-6.1,3.1,3,0.8,0.65
CCCC(=O)Nc1ccc(N2CCN(C(=O)c3cc4ccccc4o3)CC2)cc1,-9,i,8,8,3.0,1.3,-12,1.5,0.72
CC1(C)CC(NC(=O)c2cccc(Cl)c2)CC(C)(C)N1,-7,i,0,4,-5.3,-3.2,-1,-2.9,0.65
O=C(NCCCN1CCCC1=O)c1csc2ccccc12,-2,i,6,10,-5.8,4.1,-5,0.9,0.73
COC(=O)c1ccc(NC(=O)CN(C)Cc2cccc(F)c2)cc1,nt,i,-11,-2,1.3,0.8,12,1.5,0.63
CC(=O)C1=C(O)CC(c2ccccc2)CC1=NCCc1ccccc1 (stereo not drawn),-10,i,-41,-65,-5.1,-1.3,1,-3.3,0.63
COC(=O)c1onc(-c2c(Cl)cccc2Cl)c1C(=O)OC,-1,i,2,1,-0.9,-0.2,2,0.4,0.68
C/C(=N\OC(=O)c1c(-c2ccccc2Cl)noc1C)c1nccs1,-12,i,5,8,2.1,nt,-17,0.5,nt
COc1cc2[nH]c(=O)n(CCCC(=O)NCCc3ccccc3)c(=O)c2cc1OC,-3,nt,nt,nt,nt,-10,7,-2.6,0.69
CCN(CC)S(=O)(=O)c1ccc(N2CCCC2)c(C(=O)OCC(=O)Nc2cc(C)on2)c1,-14,i,-12,-14,-0.9,5.6,5,1.0,0.68
O=C(O)CS(=O)(=O)c1ccc(Oc2ccc(S(=O)(=O)CC(=O)O)cc2)cc1,-2,nt,nt,nt,nt,-0.6,nt,nt,0.74
CC(=O)Oc1ccc2c(=O)c(-c3nc4ccccc4s3)coc2c1,nt,i,5,2,-1.8,-5.1,8,-4.2,0.68
CC(=O)Nc1ccc(S(=O)(=O)NC2(C(F)(F)F)NC(=O)N(Cc3ccccc3)C2=O)cc1 (stereo not drawn),-10,i,10,4,-1.3,4.6,-2,-0.2,0.74
CCOC(=O)c1cnc(-n2nc(C)cc2C)nc1Nc1ccc(OC)cc1,nt,nt,nt,nt,nt,2.1,-14,-1.0,0.69
COc1ccc(CNC(=O)CN(CC2CCCO2)C(=O)CNS(=O)(=O)c2ccccc2)cc1 (stereo not drawn),-10,nt,nt,nt,nt,1.6,20,3.4,0.74
Nc1nc2c(nnn2Cc2ccc(Cl)c(Cl)c2)c(=O)[nH]1,nt,i,nt,nt,nt,2.2,0,2.0,0.69
COc1ccc(CCNC(=O)COC(=O)c2cc(OC)c(OC)cc2OC)cc1,-1,i,1,-3,-1.5,-0.4,-1,4.4,0.68
CC(C)c1cccc(C(C)C)c1NC(=O)c1ccc(OCC(=O)NCc2ccccc2)cc1,1,nt,nt,nt,nt,4.8,nt,nt,0.7
Cc1ccc(S(=O)(=O)CCc2nnc(N)s2)cc1,-10,nt,nt,nt,nt,1.2,6,1.1,0.71
O=C(NC(c1ccc(F)cc1)c1ccc2ccccc2n1)C1CCN(Cc2cccc(C(F)(F)F)c2)CC1 (stereo not drawn),nt,i,-13,-48,24,nt,nt,2.3,nt
COc1ccc(C2=NC(C(F)(F)F)(C(F)(F)F)c3c(n(C)c(=O)n(C)c3=O)N2)cc1,nt,nt,nt,nt,nt,-52,6,1.4,0.71
CCCCCC(=O)Nc1nnc(CCc2ccccc2)s1,-2,i,1,2,-0.3,-1.7,-3,0.3,0.72
CCOC(=O)c1cnc2c(-c3ccccc3)c(C)nn2c1N,0,nt,nt,nt,nt,-31,-8,1.7,0.72
CCc1ccc(N(CC(=O)NCc2ccc(F)cc2)C(=O)c2csnn2)cc1,-1,nt,-1,0,-0.8,0.1,6,3.2,0.66
CCOCCCNC(=O)/C(C#N)=C/c1ccc([N+](=O)[O-])o1,-116,i,3,2,28,-40,5,0.3,0.68
CC(OC(=O)c1c(F)cccc1F)C(=O)NCCC1=CCCCC1 (stereo not drawn),-6,i,-50,-54,18,29*,3,-1.4,0.64
COc1cc(NC(=O)CCS(=O)(=O)c2ccc3nc(C)sc3c2)cc(OC)c1OC,0,i,0,10,0.6,4.3,9,-9.1,0.64
CCc1ccc2oc(=O)cc(CN3CCCCC3)c2c1,1,i,7,4,-0.3,0.2,-5,-0.3,0.66
COc1ccc(C2N(C(=O)c3ccccc3)CCN2C(=O)c2ccc(C)cc2)cc1 (stereo not drawn),-1,i,3,-1,-6.7,1.4,-3,0.9,0.65
Cc1cccc(-n2ncc3c(=O)[nH]c(SCC(=O)N4CC(=O)Nc5ccccc54)nc32)c1,1,i,6,15,2.8,3.0,4,-1.7,0.67
COc1cc(C(=O)Oc2c(CN3CCOCC3)cc(Cl)c3cccnc23)cc(OC)c1OC,nt,nt,nt,nt,nt,4.5,-14,-0.1,0.64
CC1CCCC(C)N1C(=O)CSc1nnc(NC(=O)c2cccs2)s1 (stereo not drawn),-8,nt,nt,nt,nt,5.7,-6,-1.4,0.68
CCOc1ccc(-c2nnc(SCC(=O)N3CCNC3=O)o2)cc1,-3,i,3,17,0.4,3.7,-3,-3.8,0.65
COc1cccc(CNC(=O)Cc2ccc(Br)cc2)c1,-7,i,6,3,5.0,2.6,6,4.8,0.72
N#Cc1cccc(-c2csc(C(O)(c3ccccc3)C(F)(F)F)n2)c1 (stereo not drawn),nt,i,-55,-76,-14,nt,nt,-2.7,nt
CS(=O)(=O)n1nc(C(=O)N2CCOCC2)nc1N,0,nt,nt,nt,nt,-2.1,-1,2.1,0.71
O=c1c2cc(F)ccc2sn1-c1ccc(F)cc1,-1,nt,nt,nt,nt,-0.5,-6,1.2,nt
Cc1ccccc1NS(=O)(=O)c1cc2c3c(c1)C(C)C(=O)N3CCC2 (stereo not drawn),-2,i,14,5,1.2,-0.1,6,-5.4,0.65
O=C(COc1ccccc1-c1ccccc1)N/N=C/c1ccccn1,-4,i,-57,-64,-16,nt,-13,1.6,nt
CC#CC(=O)N1CCCC(Cc2cccc(OC)c2)(C(=O)OCC)C1 (stereo not drawn),nt,i,6,8,0.7,0.5,-4,-3.9,0.65
CCNC(=O)/C(C#N)=C/c1c(N2CCN(C)CC2)nc2c(C)cccn2c1=O,0,i,9,12,4.1,3.1,-14,0.8,0.7
Cc1ccc(Oc2nc3c(c(=O)n(C)c(=O)n3C)n2C)cc1C,-4,nt,4,23,4.9,1.7,-5,0.5,0.63
COc1ccc(OC)c(NC(=O)C2(C)CCN2Cc2cccc(OC)c2F)c1 (stereo not drawn),nt,i,-18,-20,1.4,nt,nt,-1.4,nt
COc1ccc(CNC(=O)CSc2nnc(C3CC3)n2C2CC2)cc1,-6,i,5,10,-0.3,-4.7,25,5.9,0.7
Cc1cc(C)cc(NC(=O)CCCSc2nc3ccccc3[nH]2)c1,nt,nt,nt,nt,nt,2.9,-6,2.3,0.66
NC(=S)Nn1c(CCC(=O)O)ccc1-c1ccccc1,nt,i,10,6,4.9,2.5,13,-3.2,0.72
CCOc1nc(N=C(N)N)nc2c(C)cccc12,-4,nt,nt,nt,nt,nt,5,16,nt
CC(C)(C)NC(=O)CSc1nsc(SCC(=O)NC(C)(C)C)c1C#N,0,nt,nt,nt,nt,1.4,-2,-1.2,0.69
Cn1cccc1/C=N/NC(=O)c1cccc(OC(F)(F)C(F)F)c1,0,i,1,10,-6.4,nt,-2,0.8,nt
O=C(NCc1ccco1)/C(=C\c1cccc([N+](=O)[O-])c1)NC(=O)c1ccco1,-6,i,-5,4,-2.5,0.0,11,-0.4,0.66
CCN(C(=O)CN1C(=O)/C(=C/c2ccccc2F)SC1=S)C1CCS(=O)(=O)C1 (stereo not drawn),-13,i,16,18,3.3,9.5,2,0.6,0.72
CCC(=NCc1ccc(Cl)c(Cl)c1)c1nc(-c2ccco2)oc1O,-3,i,-23,-27,-4.4,nt,-12,-4.5,nt
Clc1ccc(-c2noc(CN3CCN(c4ccccc4)CC3)n2)cc1,3,nt,nt,nt,nt,-1.9,-3,-1.4,0.74
Cc1nnc(NC(=O)CCn2c(=O)oc3ccccc32)s1,1,i,2,15,-2.6,5.2,3,3.0,0.66

# These rows are one share of the data, so the mix of outcomes need not match the whole.
